Screens: PubChem, several laboratories
T cruzi inh = inhibitors of intracellular T. cruzi growth, primary screen, luminescence, NIH3T3 host cells; T. cruzi beta-gal in NIH3T3, 90 h; inhibition, % (concentration not given with the values); hit rate 1.4% among 300,000;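 active = mean inhibition across valid replicates above about 55%, limit read from the data; inconclusive = mean below that limit but half or more replicates reach it; inactive = mean below it, under half of replicates reach it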;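 also: signal also drops with host cell toxicity which is not excluded here; 0% = plate median of DMSO wells and 100% = zero luminescence signal; higher percent means less beta-gal luminescence so fewer parasites; stock transfer was 50 nL into about 50 µL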
Bfl-1 A1 inh = caspase 3/7 activation in MEF A1-2A-BIM cells, primary screen, A1 inhibitor project, cell-based, luminescence, HTS. AID 2462, 2010. hit rate 0.066% among 330,000. caspase activation, % (test concentration not listed). Caspase-Glo 3/7 luminescence, 3 h; percent of clofoctol response, vehicle zero;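 active = over half of replicate activation scores above 10%, or exactly half above 10 with the replicate mean above 10; inconclusive = replicate mean below 10 yet half the replicates above 10; inactive = over half of replicates below 10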;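 also: wells of about 30 µL received 50 nL stock; many hits fall short of the cut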
LANA-H2A inh = blockers of LANA interaction with H2A/H2B – biochemical, FP readout, HTS, primary screen; Protein LANA1 (Human herpesvirus 8 type P (isolate GK18)), Q9QR71; cell-free LANA-H2A/H2B peptide, fluorescence polarization; inhibition, % (concentration not given with the values); hit rate 0.6% among 320,000; AID 2629, 2010; in the data active = inhibition mostly above about 10%, no sharp cut-off; inactive = mostly below about 6.7%;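 also: stock transfer was 7.5 nL into about 10 µL; 0% = median of vehicle wells and 100% = median of positive control wells; one replicate is shown; the record names a cut of 25% in any replicate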
MLL AF4-AF9 inh = inhibitors of AF4 peptide binding to AF9, primary screen, biochemical, AlphaScreen, biotin-AF4 peptide, FLAG-AF9, single point | Protein AF-9 (Homo sapiens), P42568 | inhibition, % at 10 µM | hit rate 0.47% among 350,000 | AID 651704, 2012;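 active = every replicate reaching a set inhibition limit, whatever the replicate mean, cut at about 25% in these data; inconclusive = mean inhibition reaches that limit but some replicates miss it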;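 also: 0% = plate neutral control median and 100% = total signal loss; the record names both 10 and 1 µM as test concentration; the first replicate is given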
Target sequence (P42568 whole entry, looked up): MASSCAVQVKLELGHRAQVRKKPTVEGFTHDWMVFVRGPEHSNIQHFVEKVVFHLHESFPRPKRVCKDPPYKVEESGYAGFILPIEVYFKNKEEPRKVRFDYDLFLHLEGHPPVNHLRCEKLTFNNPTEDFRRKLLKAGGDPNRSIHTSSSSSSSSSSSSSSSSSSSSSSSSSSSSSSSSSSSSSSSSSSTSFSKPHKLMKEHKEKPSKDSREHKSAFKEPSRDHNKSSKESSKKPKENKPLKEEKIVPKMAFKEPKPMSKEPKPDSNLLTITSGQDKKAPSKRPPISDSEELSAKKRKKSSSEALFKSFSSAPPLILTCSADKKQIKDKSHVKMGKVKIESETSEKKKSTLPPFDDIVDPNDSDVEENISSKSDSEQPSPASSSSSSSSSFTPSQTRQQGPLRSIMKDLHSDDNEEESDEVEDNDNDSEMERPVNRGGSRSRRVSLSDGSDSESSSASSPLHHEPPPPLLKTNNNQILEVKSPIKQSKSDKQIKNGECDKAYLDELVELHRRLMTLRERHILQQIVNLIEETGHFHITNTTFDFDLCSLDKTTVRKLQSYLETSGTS
Calb FLC = C. albicans growth inhibition with fluconazole, primary screen, CaCi-2 strain, Alamar Blue fluorescence | growth inhibition, % (concentration not given with the values) | hit rate 0.57% among 300,000 | C. albicans CaCi-2 (fluconazole-resistant clinical isolate) + fluconazole, 48 h;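 active = most replicates above 75%; inconclusive = exactly half above 75%; inactive = most below 75%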;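 also: all wells also contain fluconazole at 8 µg/ml as a sub-toxic cotreatment; 0% = median of DMSO wells and 100% = median of geldanamycin control wells; wells of about 8 µL received 7.5 nL stock; the first replicate is given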
Beta cell apopt = inhibitors of cytokine-induced beta cell apoptosis, primary screen, luminescence | INS-1E cytokine-induced death, ATP luminescence, 48 h; percent of positive-control rescue, neutral wells zero | protection from apoptosis, % (test concentration not listed) | hit rate 0.8% among 300,000 | AID 435005, 2010;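 active = all replicates at 75% or more, or half of them and the mean; inconclusive = half reach 75% but not the mean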;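 also: 0% = cytokine-treated negative control wells and 100% = positive control rescue; higher means more ATP so stronger rescue from cytokine killing; wells of about 40 µL received 100 nL stock; the first replicate is given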
RanGTP-Impb inh = inhibitors of RanGTP-importin-beta interaction, primary screen, biochemical, FRET, CFP-Ran, YFP-importin-beta, homogeneous | inhibition, % (test concentration not listed) | AID 2216, 2009 | Ran GTPase (GTP-bound) - importin-beta complex | cell-free CFP-Ran/YFP-importin-beta FRET ratio | hit rate 1.1% among 300,000;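 active = most replicates above 15%; inconclusive = exactly half above 15%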;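 also: 0% = DMSO wells and 100% = Ran loaded with GDP instead of GTP; wells of about 40 µL received 100 nL stock; the first replicate is given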
Vif TR-FRET = inhibitors of Vif binding to APOBEC3G peptide, primary screen, biochemical, TR-FRET, GST-Vif 1-94, biotin-A3G peptide, dose response retest (AID 1117319); hit rate 0.57% among 260,000; Virion infectivity factor (Human immunodeficiency virus type 1 group M subtype B (isolate …; TR-FRET GST-Vif / biotin-A3G peptide binding; higher % means a stronger effect; test concentration not given here; strong numbers were not always called active; inhibition, %; hits with a dose series show IC50 in µM;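 active = above the screen mean plus three standard deviations and confirmed in dose response; inconclusive = results disagree or hit not tested in dose response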;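 also: Vif residues 1-94 fused to GST binding biotinylated APOBEC3G peptide 110-148; 0% = full assay without inhibitor and 100% = GST in place of GST-Vif; retest series ran down from 100 µM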
* hit, by the source's call; u = inconclusive; x = not tested or not shown.

SMILES	T cruzi inh	Bfl-1 A1 inh	LANA-H2A inh	MLL AF4-AF9 inh	Calb FLC	Beta cell apopt	RanGTP-Impb inh	Vif TR-FRET
CC(O)Cn1c(N2CCCC2)nc2c1c(=O)[nH]c(=O)n2C (stereo not drawn)	0	0.0	1.1	2.7	0	-5	0.0	x
CN1C(=O)CC2(CC(=O)N(Cc3ccccc3)C2)C1=O (stereo not drawn)	-3	1.9	-2.1	x	-2	3	-2.1	21%
CC(C)N(C(=O)c1nn(C)c2c1CSc1ccccc1-2)C1CCCCC1	-14	0.2	5.1	-4.0	3	-1	2.0	x
COc1ccc(S(=O)(=O)NC(C)C(=O)NCc2cccnc2)cc1C (stereo not drawn)	-14	0.7	-4.1	4.5	-1	x	-0.1	0%
C[C@]1(C(=O)O)C=C[C@@H](Cc2ccccc2)N1C(=O)c1ccccc1	-18	0.0	-2.3	-2.0	10	3	-4.0	0%
Cc1onc(-c2ccccc2)c1C(=O)Nc1c(C)n(C)n(-c2ccccc2)c1=O	-4	1.8	-3.6	x	-1	3	3.4	5%
CC(=NC1CCCCC1)C1=C(O)c2ccccc2C1=O	17	-1.1	1.4	x	-3	-2	1.0	x
NC(=O)c1ccc[n+](CC(=O)c2ccc(Br)cc2)c1	-11	-0.2	0.6	5.5	11	-6	-5.3	23%
O=C(Nc1ccccc1)c1ccc(-c2ccccc2C(F)(F)F)o1	x	0.1	1.2	-0.4	x	-11	x	7%
CCOC(=O)COc1cc(O)c2c(=O)cc(-c3ccccc3)oc2c1	6	-1.1	2.5	-4.2	0	3	-5.7	x
COc1cc(NC(=O)CN2CCN(C(=O)C3CCCO3)CC2)c(OC)cc1Cl (stereo not drawn)	-9	0.0	-2.9	0.1	x	-15	x	x
c1cc2c(cc1Oc1nc(N3CCOCC3)nc(N3CCOCC3)n1)OCO2	-3	0.4	-3.1	x	-14	0	-2.2	0%
Cc1nc2ccccc2n1C(=O)N1CCOCC1	3	1.6	2.3	x	-4	-8	-2.7	2%
COc1cccc(C2CC(C(F)(F)F)n3nc(C(=O)Nc4c(C)n(C)n(-c5ccccc5)c4=O)cc3N2)c1 (stereo not drawn)	-5	-0.3	1.1	1.6	-3	1	0.3	5%
Cc1ccnc(SCc2cc(=O)c(OC(=O)c3ccccc3)co2)n1	1	0.2	0.4	-35	-14	2	1.7	6%
COC(=O)c1sc(C(C)(C)C)cc1CS(=O)(=O)c1ccccn1	1	0.9	0.0	x	12	1	-1.1	32%
CC(=O)N(C)c1ccc(NCc2cc(=O)oc3cc(C)c(O)cc23)cc1	4	0.0	-2.4	2.1	-6	2	0.1	-11%
Cc1ccc(CNC(=O)COC(=O)c2ccc(Cl)c(N)c2)cc1	-5	-0.6	x	-0.7	u	-19	2.1	-2%
CC(C)(C)[C@@H]1COC(=O)[C@@H](NC(=O)OCC2c3ccccc3-c3ccccc32)C/C=C\C[C@@H](CC(=O)NCCO)C(=O)N1	x	1.2	2.9	0.9	x	7	x	x
Cc1nc2cc(S(=O)(=O)N(C)C)ccc2n1-c1ccccc1	5	1.0	4.8	x	-3	-2	-0.5	-9%
CCC1CCCCN1C(=O)CN1C(=O)CSC1=O (stereo not drawn)	4	0.8	-2.5	x	5	x	2.9	1%
Cc1ccc(S(=O)(=O)/N=C(\Nc2cc(C)on2)c2ccc(Cl)cc2)cc1	5	0.5	5.1	1.1	-3	-2	1.4	-5%
CN1c2ccccc2C(=O)C(=C2SCCCS2)S1(=O)=O	-14	-0.7	-6.1	8.2	10	-13	1.6	6%
COc1ccccc1-c1nnc(SC(C)C(=O)Nc2ccc(C(N)=O)cc2)o1 (stereo not drawn)	-5	-1.0	5.0	0.4	-2	x	1.0	-4%
Cc1ccccc1N/C(SCc1cccc(Br)c1)=C(/C#N)C(N)=O	2	0.3	1.8	x	-4	1	-1.3	x
CC1CC(=O)N(c2ccc(C(C)C)cc2)C(=O)C1	3	-0.4	-2.3	-1.4	-4	2	7.2	x
O=C(Nc1ccnn1C1CCN(C(=O)c2c(F)cccc2F)CC1)C1CC1	-2	-0.3	-1.8	-0.7	-1	-3	0.6	x
O=[N+]([O-])c1ccccc1/C=N/Nc1nnc(-c2ccccc2)c(-c2ccccc2)n1	-9	0.5	-2.4	x	-5	4	-2.1	9%
Cc1ccc(NC(=O)c2nc[nH]c2C(=O)N[C@@H](C)C(=O)OC(C)(C)C)cc1	-2	-0.2	1.1	-1.1	5	11	1.8	7%
CCN(Cc1nc(-c2ccccc2)no1)C(=O)COc1cccc(OC)c1	11	0.1	-7.7	-2.2	4	2	4.9	x
CCOc1cc(/C=N/NC(=O)c2ccncc2)ccc1OC(=O)c1ccccc1	-4	0.8	-0.8	-12	1	-9	u	-3%
CCc1ccc(/C=N/NC(=O)c2cc(C)on2)s1	7	-2.4	1.6	1.6	-5	1	4.1	-5%
CN(CC(=O)Nc1ccc(N2CCOCC2)cc1)C(=O)C12CC3CC(CC(C3)C1)C2	8	-0.6	-7.0	-0.6	12	0	4.6	-8%
CN1CCN(CC(=O)C23CC4CC(CC(C4)C2)C3)CC1	56*	-0.6	1.3	x	-1	-3	2.7	0%
CCOC(=O)C1=C(COC(=O)c2ccc([N+](=O)[O-])s2)NC(=O)NC1C (stereo not drawn)	x	-0.1	0.5	1.5	x	19	x	x
C(=N\N=C\c1cccnc1)/c1cccnc1	1	0.1	0.1	x	-12	-7	-3.4	-12%
COc1cccc(CNC(=O)c2ccc(C)c(NC3=NC4CS(=O)(=O)CC4S3)c2)c1 (stereo not drawn)	-6	x	0.6	3.3	2	-9	-0.8	x
COc1nc(-c2ccncc2)nc2ccccc12	-8	-0.6	10	x	-4	5	3.0	0%
Cc1[nH]n(C)c(=O)c1C(=O)c1c(-c2ccccc2Cl)noc1C	-11	0.4	-2.4	x	8	3	5.4	-4%
COc1ccc2cc(C#N)c(SCC(=O)NNC(=O)Cc3ccccc3)nc2c1	17	-0.3	2.5	x	-7	x	4.1	-120%
CCOc1cc(/C=C2\N=C(SCC)SC2=O)cc([N+](=O)[O-])c1OC(C)=O	-3	0.3	1.7	x	-5	-15	5.6	14%
COc1cc(-c2c(-c3ccc4c(c3)OCO4)noc2-c2ccsc2)ccc1F	13	-0.2	1.1	0.9	0	14	4.1	x
O=C(Nc1ccc(CN2CCOCC2)cc1)c1cccc(-c2cc3ccccc3oc2=O)c1	4	0.4	-0.5	-1.6	-5	7	-2.0	u
CCOc1ccc(/C=N/OCC(=O)NCc2ccc3c(c2)OCO3)cc1OC	-6	-0.6	1.3	x	10	x	2.1	3%
COc1ccc(CCn2c(=N)c(C(=O)NCC3CCCO3)cc3c(=O)n4ccccc4nc32)cc1OC (stereo not drawn)	10	0.4	-1.9	-5.5	-6	6	5.8	x
Cc1cc(C)nc(SCNC(=O)c2ccc(F)cc2)n1	-7	0.0	4.6	x	-7	2	0.7	-2%
COC(=O)CNC(=O)c1c(-c2ccccc2Cl)noc1C	6	0.1	1.4	x	-7	x	6.0	18%
Cc1ccc(OCc2ccc(-c3ccccc3)cc2)c([N+](=O)[O-])n1	5	1.3	-5.2	-0.6	0	1	0.5	x
O=C(O)C(c1ccccc1)c1ccccc1	0	-0.6	-4.3	-7.5	-5	3	-1.2	x
CCC1=NN2C(=N)/C(=C/c3c(C)nn(-c4ccccc4)c3Cl)C(=O)N=C2S1	-5	0.1	3.5	-0.4	-17	1	3.8	7%
CCC(C)NC(=O)CCS(=O)(=O)c1ccc(Br)s1 (stereo not drawn)	-22	-0.7	-3.5	x	0	-6	-2.7	4%
Cc1cccc(C)c1NC(=O)C(Cl)=C(Cl)Cl	-23	0.8	7.2	-4.8	-18	-11	0.7	x
CCn1c(SCC(N)=O)nnc1-c1cc2c(C)nn(-c3ccccc3)c2s1	4	-0.6	5.9	x	3	-5	-2.1	2%
CCCC(=O)n1nc(-c2ccc(OC)cc2)nc1N	0	-0.6	-2.9	x	-2	-1	-4.1	19%
CC(=O)c1ccc(S(=O)(=O)NCC(=O)Nc2nc3ccccc3[nH]2)cc1	x	0.2	-4.5	-0.1	x	-3	x	0%
Cc1ccccc1OCC(=O)Nc1ccc(C(=O)Nc2ccccc2C(=O)O)cc1	3	-1.2	5.2	-1.7	12	0	-1.1	2%
O=C(NC1CCCC1)c1cc(-c2ccccc2O)on1	-10	-0.4	6.7	-2.1	-1	1	6.8	x
CCCOc1ccc(/C=c2\sc3nc(-c4ccco4)nn3c2=O)cc1OCC	x	0.3	5.2	x	-3	-5	-1.9	8%
Cc1ccc(-n2c(O)c(C=Nc3cc(C)on3)c3ccccc3c2=O)c(C)c1	-3	0.1	-2.2	14	2	3	u	0%
COc1cc2ccccc2cc1C(=O)NC1CCCC1	x	-1.7	7.7	-5.4	x	0	x	-1%
The listing continues.
SMILES	T cruzi inh	Bfl-1 A1 inh	LANA-H2A inh	MLL AF4-AF9 inh	Calb FLC	Beta cell apopt	RanGTP-Impb inh	Vif TR-FRET
CCc1nnc2n1N=C(c1ccc(OC)cc1)CS2	4	0.5	-6.5	x	57	10	1.1	2%
COc1cccc(/C=N/NC(=O)NC23CC4CC(CC(C4)C2)C3)c1O	-6	0.4	1.8	x	5	19	-3.6	x
CS(=O)(=O)CCC(C(=O)OCC(=O)c1ccc(Cl)cc1)N1C(=O)c2ccccc2C1=O (stereo not drawn)	-4	-0.8	3.7	8.7	-6	-4	0.9	x
O=C(OCCCN=C1NS(=O)(=O)c2ccccc21)c1ccc([N+](=O)[O-])cc1	16	0.9	3.5	-1.6	-33	x	1.9	4%
[N-]=[N+]=CC(=O)C(c1ccccc1)(c1ccccc1)c1ccccc1	2	-0.3	4.2	0.0	-2	x	-3.9	-7%
COc1ccc2nc(SCC(=O)N(C)C3CCCCC3)[nH]c2c1	x	0.5	-0.8	-1.9	x	-5	x	1%
CC(C)Cn1c(SCc2nc3ccccc3c(=O)[nH]2)nc2ccccc2c1=O	5	-0.4	-0.6	x	5	9	0.3	-3%
Cc1n[nH]c(=S)n(NC(=O)CC(=O)Nn2c(=S)[nH]nc(C)c2=O)c1=O	8	0.8	-0.9	-4.2	93*	2	3.7	u
O=C1C2C(C(=O)N1/N=C/c1cc([N+](=O)[O-])c(O)cc1O)C1C=CC2C12CC2 (stereo not drawn)	2	-1.0	-9.3	-6.2	-10	7	-5.7	u
CCCNC(=O)Cn1cnc2sc(C(=O)N3CCN(c4ccc(F)cc4)CC3)c(C)c2c1=O	-8	0.2	-4.7	x	-7	-1	1.4	8%
